# Source: PubChem BioAssay
# Six1-Eya2 blk – qHTS Assay for Inhibitors of the Six1/Eya2 Interaction. AlphaScreen GST-Six1/His-Eya2 binding, biochemical; hits give low values; control for the full effect not named in the record. 0.56% of 360,000 active. Homeobox protein SIX1 (Homo sapiens) + Protein phosphatase EYA2 (Homo sapiens), …. activity change, % (test concentration not listed). AID 651725, 2012; in the data active = activity change below about -65%; inconclusive = about -30% to -65%; inactive = above about -30%; further: on the % scale 0 is the no-effect control and ±100 the full control effect; compound concentration not given in the record
# Target sequence (O00167 whole entry, looked up): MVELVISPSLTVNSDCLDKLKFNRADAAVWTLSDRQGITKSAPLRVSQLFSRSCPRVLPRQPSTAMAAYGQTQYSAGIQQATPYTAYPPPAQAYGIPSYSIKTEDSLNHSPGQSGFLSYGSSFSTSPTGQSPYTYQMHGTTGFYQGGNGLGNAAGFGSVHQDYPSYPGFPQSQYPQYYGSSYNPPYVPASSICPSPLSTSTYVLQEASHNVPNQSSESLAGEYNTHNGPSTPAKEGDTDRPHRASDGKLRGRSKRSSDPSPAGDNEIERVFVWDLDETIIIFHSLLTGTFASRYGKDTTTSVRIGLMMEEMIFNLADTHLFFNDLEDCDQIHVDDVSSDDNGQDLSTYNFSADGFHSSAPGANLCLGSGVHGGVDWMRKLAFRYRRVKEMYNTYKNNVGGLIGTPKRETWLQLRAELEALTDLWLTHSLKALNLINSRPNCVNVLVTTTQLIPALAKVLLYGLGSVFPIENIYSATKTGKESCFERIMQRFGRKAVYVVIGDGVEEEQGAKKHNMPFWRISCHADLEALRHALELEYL
# Target sequence (Q15475 whole entry, looked up): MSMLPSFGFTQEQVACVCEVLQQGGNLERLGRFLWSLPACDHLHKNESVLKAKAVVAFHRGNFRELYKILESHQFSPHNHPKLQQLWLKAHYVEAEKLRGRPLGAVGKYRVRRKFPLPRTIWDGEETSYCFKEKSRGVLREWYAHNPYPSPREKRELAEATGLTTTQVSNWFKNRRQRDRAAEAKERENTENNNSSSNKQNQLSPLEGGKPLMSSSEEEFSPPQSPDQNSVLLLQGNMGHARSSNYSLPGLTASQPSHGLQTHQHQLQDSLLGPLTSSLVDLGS
#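 AlphaScreen luminescence read after one hour at 37 °C in darkness. Pin-transferred compounds met GST-Six1 and His-Eya2 protein (5X stock 250 nM/500 nM) plus glutathione donor and Ni-chelate acceptor beads (5X, 50 ug/mL).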
# gsp antag – qHTS for Antagonists of gsp, the Etiologic Mutation Responsible for Fibrous Dysplasia/McCune-Albright Syndrome: qHTS; gsp-mutant cells, cAMP HTRF, 30 min; control for the full effect not named in the record; Potency, µM (top dose mostly 76.9 µM), without a hit: at the highest dose activity change, negative = inhibition, hits mostly inhibitors; 0.4% of 340,000 active; active = falling curve of any shape with a large fitted effect; inconclusive = falling curve, mostly with a smaller effect; inactive = flat or rising curve; cell line not stated here;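 further: intracellular cAMP measured with PDE inhibitor Ro 20-1724 present during compound exposure; potency means the concentration at half of the fitted maximal effect; on the % scale 0 is the no-effect control and ±100 the full control effect; nearly all actives have a fitted effect of over 65% in size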
#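 HTRF cAMP read-out (cAMP-d2 plus anti-cAMP antibody-K in lysis buffer, 30 min RT). Before lysis, cells are exposed to compounds with […] for 30 min at 37C in DPBS containing Ca/Mg, BSA and Tween 20.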
# D2 agonist – Beta-Arrestin HTS for Positive Allosteric Modulators of the Human D2 Dopamine Receptor: Agonists | 0.084% of 360,000 active | DiscoveRx PathHunter D2 beta-arrestin, luminescence, 90 min; 100% = 57 uM dopamine signal | activation, % (no concentration beside the values) | D(2) dopamine receptor (Homo sapiens), P14416 | AID 624465, 2012; in the data active = activation above about 40%; inconclusive = about 15% to 40%; inactive = below about 15%; further: compound concentration not given in the record; the text of the record calls up to 30% inactive
#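 DiscoveRx PathHunter D2 beta-arrestin cells (2,100/well) attached overnight, then compound-stimulated 90 min at 37 C in HBSS/10 mM HEPES/0.1% Tween-20 buffer; beta-galactosidase complementation read by luminescence after 1 h at ambient temperature. Dopamine 57 uM final (EC100) as control.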
# CtBP-E1A blk – qHTS Assay for Inhibitors of the CtBP/E1A Interaction; AlphaScreen GST-E1A/His-CtBP binding, 1536-well; hits give low values; control for the full effect not named in the record; activity change, % (concentration not given with the values); 0.49% of 340,000 active; in the data active means activity change below about -65%; inconclusive means about -30% to -65%; inactive means above about -30%; further: on the % scale 0 is the no-effect control and ±100 the full control effect
#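 Protein mix (5X: 125 nM each GST-E1A, His-CtBP) was incubated with pinned compound 2 h at 37 deg C in dark, in 50 mM Tris pH 8.0 buffer with 300 mM NaCl. Glutathione donor and nickel acceptor beads followed; AlphaScreen signal read after 1 h.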
# gsp ag – qHTS for Agonist of gsp, the Etiologic Mutation Responsible for Fibrous Dysplasia/McCune-Albright Syndrome: qHTS | Potency, µM (top dose mostly 76.9 µM), without a hit: at the top dose activation (cAMP increase), actives largely listed as activators | gsp mutant cells, cAMP HTRF, 30 min; control for the full effect not named in the record | 0.13% of 340,000 active | AID 624287, 2012; active = well fitted activation curve with a large enough effect; inconclusive = small, poorly fitted or top-dose-only effect, or another doubt; inactive = no such curve, though single readings can be large or run the other way; cell line not stated here;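 further: phosphodiesterase inhibitor Ro 20-1724 added with compounds to block cAMP breakdown; potency means the concentration at half of the fitted maximal effect; nearly all actives have a fitted effect of over 60% in size; about a fifth of the inactives were tested at one dose only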
#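 Cells in DMEM/10% FBS with G418 were pretreated with compounds in DMSO plus […] (300 uM stock) for 30 min at 37C. cAMP was measured by HTRF (cAMP-d2 plus anti-cAMP antibody-K) after 30 min at room temperature.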
# D2 PAM – Beta-Arrestin HTS for Positive Allosteric Modulators of the Human D2 Dopamine Receptor: Potentiators | D(2) dopamine receptor (Homo sapiens), P14416 | DiscoveRx D2 beta-arrestin cells, luminescence, 90 min; 100% = 57 uM dopamine signal | potentiation, % (no concentration beside the values) | 0.23% of 360,000 active; active = potentiation of 50% or more; inconclusive = 30% to 50%; inactive = 30% or less;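 further: compound concentration not given in the record; tested on top of an EC20 dose of dopamine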
#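 PathHunter beta-arrestin assay in DiscoveRx D2 cells. Compounds were added with an EC20 of dopamine (50 nM final) for 90 min at 37 deg C. Luminescence was read 1 h after detection reagent, with 57 uM dopamine as the EC100 control.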
# Numbers without * were called inactive; u = inconclusive; x = not tested or not shown; [ ] = dose if it differs, or a comment.
Six1-Eya2 blk	gsp antag	D2 agonist	CtBP-E1A blk	gsp ag	D2 PAM	mol
4	7%	-2.0	4	x	-41	CC(C)(O)C1CC[C@@](C)([C@@H]2CC[C@]3(C)[C@H]2[C@H](O)CC2[C@@]4(C)CCC(O)C(C)(C)C4C(OC4OC(CO)C(O)C(O)C4O[C@@H]4OCC(O)C(O)C4O)C[C@]23C)O1 (some centres not stated)
7	-24%	6.5	4	33%	1	COc1cc(C(=O)NCCOc2cc(C)ccc2C(C)C)cc(OC)c1OC
5	-1%	0.0	14	10%[15.4 µM]	-4	CCN1CCC(N2CCN(c3ccc(F)cc3)CC2)CC1
15	6%	-2.1	5	-33%[inhibitor]	-1	CC(C)CC(NC(=O)OC(C)(C)C)C(=O)NCc1ccccc1 (configuration not stated)
-5	-20%	4.7	0	u	-1	CC(C)(C)C1(O)CC(C(F)(F)F)=NN1C(=O)Cc1ccc([N+](=O)[O-])cc1 (configuration not stated)
0	-7%	u	0	-10%[15.4 µM]	22	COc1cc(/C=N/NC(=S)Nc2cccnc2)cc(OC)c1O
5	2%	-1.4	3	x	-39	C=CCOC(=O)C1=C[C@H](c2ccc(C(F)(F)F)cc2)C[C@H](OCCCCO)O1
-2	-5%	-8.1	0	u	-12	C=CCc1cccc(C2Nc3ccccc3C(=O)N2O)c1O (configuration not stated)
7	2%	0.7	5	3%	-4	C=CCn1nc(-c2ccccc2)c2c(C)onc2c1=O
-3	u	-0.3	3	3%[15.4 µM]	-12	O=C(Nc1ccc(Cl)c([N+](=O)[O-])c1)c1ccc2c(c1)OCCO2
3	16%	-3.1	-1	u	2	Cc1cc(=O)n2nc(-c3ccc(C(F)(F)F)cc3)sc2n1
3	-2%	-2.5	11	-35%	-7	CC(=O)c1cc(C(=O)N2CCCC(CCC(=O)N(C)CCc3ccccn3)C2)cs1 (configuration not stated)
1	-17%	-4.1	-2	16%	-11	O=C(O)c1ccccc1N/N=C/c1c(Sc2nnnn2-c2ccccc2)nc2ccccn2c1=O
-19	-17%	-1.9	-11	-3%	-9	CC(C)c1ccc(NC2CCCN(C(=O)CCN3Cc4ccccc4C3=O)C2)cc1 (configuration not stated)
0	-1%	-4.1	-3	u	-26	COc1ccc(CNC(=O)CCn2c(=O)c3cccn3c3ccc(F)cc32)cc1
0	8%	-1.9	-11	10%[15.4 µM]	0	Cc1sc2nc(COC(=O)c3ccc(O)cc3)[nH]c(=O)c2c1C
7	6%	-3.2	-1	11%[15.4 µM]	1	O=c1ccn(Cc2ccc(F)cc2)c2ccnc(C(F)(F)F)c12
3	6%	-2.5	0	2%[15.4 µM]	2	O=C(O)C1C2CC2CN1C(=O)c1ccc(Cl)cc1Cl (configuration not stated)
-7	-19%	1.9	-15	x	14	O=C(CCc1ccc(O)cc1)c1c(O)cc(O)cc1O
-9	-17%	2.6	4	0%[15.4 µM]	0	O=C(N/N=C/c1ccc(OCc2ccccc2)cc1)c1ccc(O)cc1
0	-25%	-1.1	4	29%[15.4 µM]	-6	CCn1c(CCNS(=O)(=O)c2ccccc2Br)nnc1SC
-1	-6%	-3.1	3	31%	-13	COCCn1c(-c2ccco2)csc1=Nc1cccnc1
-6	12%	-1.9	-1	-33%[inhibitor]	-1	O=C(NCCc1ccco1)C(=O)NCC1OCCCN1S(=O)(=O)c1cc(F)ccc1F (configuration not stated)
3	4%	-5.8	-9	-3%	27	O=C(/C=C/c1cnc2ccccc2n1)NC12CC3CC(CC(C3)C1)C2
15	u	-1.4	-4	2%[15.4 µM]	6	Cc1ccc(NC(=O)C2CCN(S(=O)(=O)c3ccc(N4CCCC4=O)cc3)CC2)cc1Cl

# Fetched by structure from the entries so far:
Six1-Eya2 blk	gsp antag	D2 agonist	CtBP-E1A blk	gsp ag	D2 PAM	mol
1	-17%	-4.1	-2	16%	-11	O=C(O)c1ccccc1N/N=C/c1c(Sc2nnnn2-c2ccccc2)nc2ccccn2c1=O
15	6%	-2.1	5	-33%[inhibitor]	-1	CC(C)CC(NC(=O)OC(C)(C)C)C(=O)NCc1ccccc1 (configuration not stated)
-5	-20%	4.7	0	u	-1	CC(C)(C)C1(O)CC(C(F)(F)F)=NN1C(=O)Cc1ccc([N+](=O)[O-])cc1 (configuration not stated)
-1	-6%	-3.1	3	31%	-13	COCCn1c(-c2ccco2)csc1=Nc1cccnc1
15	u	-1.4	-4	2%[15.4 µM]	6	Cc1ccc(NC(=O)C2CCN(S(=O)(=O)c3ccc(N4CCCC4=O)cc3)CC2)cc1Cl

# Continuation:
Six1-Eya2 blk	gsp antag	D2 agonist	CtBP-E1A blk	gsp ag	D2 PAM	mol
-8	-10%	2.2	-5	17%	4	CC(Sc1ncnc2ccccc12)C(=O)Nc1ccc2c(c1)OCCO2 (configuration not stated)
2	8%	-3.1	5	4%[15.4 µM]	-1	O=C(NC(=S)Nc1ncccn1)c1ccc(Cl)cc1Cl
-22	4%	-3.7	-6	-44%[inhibitor]	-12	CC(C)n1ncc(N2CCOCC2)c(Cl)c1=O
0	12%	3.3	3	19%	-16	Cc1ccc(NS(=O)(=O)c2ccc(NC(=O)c3cccs3)cc2)c(C)c1
-6	-7%	-1.8	-7	u	-19	O=C(CSc1nc2ccccc2[nH]1)Nc1ccccc1N1CCOCC1
-1	-1%	-0.8	3	u	-1	CC(=O)Nc1ccc(C(=O)Nc2cc(S(=O)(=O)N3CCOCC3)ccc2N2CCOCC2)cc1
1	4%	-3.8	3	27%	-7	O=C(c1noc2c1CSc1ccccc1-2)N1CCN(c2ccc(Cl)cc2)CC1
2	10%	-2.8	-2	0%	-3	CC(=O)Nc1ccc(S(=O)(=O)N2CCCC3CCCCC32)cc1 (configuration not stated)
-1	-3%	-5.0	12	29%[15.4 µM]	-27	Cc1ccc(OCCC(=O)OCC(=O)NCc2ccccc2)cc1
-10	-5%	12	2	15%	1	CCOC(=O)N1CCC(Nc2nc3ccccc3n3nnnc23)CC1
-3	-2%	-3.5	-2	6%	-6	N#C/C(=C\N1CCCCC1)S(=O)(=O)c1ccc(Cl)cc1
-2	14%	-6.9	10	-7%[15.4 µM]	-3	CCN(C(=O)CN1CCCCC1)C1(C)C(=O)c2ccccc2C1=O
-16	-23%	-3.4	-18	-20%	5	CCc1nn2cc(C(=O)c3ccccc3O)cnc2c1-c1ccc(F)cc1
0	u	1.7	-6	-6%	-4	C#CCSc1nnc(CSc2nc3ccccc3s2)n1-c1ccccc1
-22	14%	1.2	-23	-42%[inhibitor]	4	CCCc1nc2ccccc2c(C(=O)OCc2nnc(-c3cc(OC)c(OC)c(OC)c3)o2)c1CC
14	7%	-2.1	3	u	-5	Brc1ccc(Br)c2cnccc12
-13	7%	-3.1	-3	2%[15.4 µM]	-25	C=CCN(c1ccccc1)S(=O)(=O)c1cccc(C(=O)NCC(c2ccccc2OC)N2CCCC2)c1 (configuration not stated)
1	1%	0.2	-10	15%	-6	CCn1c(C)cc(C)c(C#N)c1=O
u	2%	6.5	u	1%	-1	COc1ccc(N(CC(=O)N/N=C/c2ccc(OC)c(OC)c2)S(=O)(=O)c2ccccc2)cc1
-5	-1%	0.4	4	-7%[15.4 µM]	5	O=C(c1ccco1)N1CCN(C(=O)c2cn(-c3ccccc3)nc2-c2ccc(F)cc2)CC1
1	2%	-5.5	-16	4%	-3	CCOC(=O)c1csc(NC(=O)c2ccc(C#N)cc2)n1
-2	3%	-3.5	0	3%	-15	CS(=O)(=O)N1CCC(C(=O)Nc2ccccc2Sc2ccccc2)CC1
7	7%	-0.5	-1	-1%	-8	Cc1ccc2sc(C)cc(=O)c2c1
5	-7%	-1.5	0	6%	-7	CCOC(=O)CS(=O)(=O)c1ccccc1
8	9%	1.1	2	-13%	0	COc1ccc(NC(=O)CSc2ccc3c4c(cccc24)C(=O)c2ccccc2-3)cc1
-2	9%	-2.7	-1	-26%	-17	Cc1ccc(C)c(NC(=O)C2CC(O)CN2C(=O)OC(C)(C)C)c1 (configuration not stated)
-24	3%	-1.9	-29	-59%[inhibitor]	-9	N/C(=N\OC(=O)CCCc1ccccc1)c1ccc([N+](=O)[O-])cc1
8	8%	-0.4	-6	0%	-10	O=C(NNC1=NCCC1)c1ccc(Br)cc1
-2	18%	-2.6	-2	0%[15.4 µM]	-2	CCOC(=O)c1cc(C)n(-c2ccc(Cl)cc2)c1C
6	-16%	-1.8	4	u	-6	Cc1ccc(-c2nc(-c3cccnc3)sc2CC(=O)O)cc1
1	-2%	-2.2	-1	4%[15.4 µM]	-11	COc1ccc(Cl)cc1-c1nc(SCC(N)=O)n[nH]1
12	-9%	-0.4	10	u	-20	O=C(Nc1ccc(Br)cn1)c1ccc(Br)s1
2	19%	1.8	-4	u	-3	CC(NC(=O)CNC(=O)c1cccs1)c1cccc(C(F)(F)F)c1 (configuration not stated)
1	5%	0.2	-1	-9%[15.4 µM]	1	O=C(NCC(c1ccco1)N1CCCCC1)c1ccc([N+](=O)[O-])s1 (configuration not stated)
-1	-1%	-1.0	8	25%	-5	COc1cccc(S(=O)(=O)NCc2ccc3c(c2)OCO3)c1
2	2%	4.4	9	13%	10	CCn1cc([N+](=O)[O-])c(C(=O)Nc2ccc3c(c2)OCCO3)n1
0	9%	-3.3	1	5%	-1	CC(=O)N1CCN(C(C)=O)C1c1ccccc1
10	0%	0.4	-7	-6%[15.4 µM]	6	CCCCCc1nnc(NC(=O)c2ccc(=O)n(C)n2)s1
-2	-2%	-4.1	2	23%	-14	CCCN(CCC)S(=O)(=O)c1cc2c3c(c1)CCN3C(=O)CC2
3	-9%	-1.7	5	u	-14	COc1ccc(C(C(=O)NCC2CCCO2)N(C(=O)CNC(=O)c2cccs2)c2ccc(C)cc2)cc1OC (configuration not stated)
-1	-7%	0.0	x	14%	-7	Cc1cc(SCc2cccc([N+](=O)[O-])c2)nc(=O)[nH]1
-9	-6%	41*	-4	44%	u	OC(COc1ccc2cc(Br)ccc2c1)CN1CCN(c2ccccn2)CC1 (configuration not stated)
11	0%	5.8	0	-113%[inhibitor]	-8	Cc1ccc(-n2ncc3c(=O)[nH]c(SCC(=O)N4CCCC4)nc32)cc1C
-3	0%	-4.1	-5	-19%	-5	COc1cccc(-c2nc(CS(=O)(=O)CC(=O)Nc3cc(C)ccc3C)c(C)o2)c1
4	-1%	0.5	9	u	-8	COc1ccc(-c2nc3ccccc3c(=O)n2CCCN2CCOCC2)cc1
-3	11%	-2.6	-7	7%	-16	C=CCC1(C(=O)NCCO)CCN(C(=O)OC(C)(C)C)CC1
